Screens from PubChem.
MT1-MMP reporter – inhibitors of MT1-MMP promoter transcription, cell-based, luciferase reporter, luminescence (AID 618); MT1-MMP promoter luciferase reporter cells, luminescence; calls from a first round at 10 µM; hits with a dose series show EC50 in µM; 87,000 tested, 0.62% active;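 active = over half of the reporter light lost at 10 µM or EC50 under 50 µM; inactive = the rest and hits that failed the dose series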;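 also: actives suppress MT1-MMP promoter-driven transcription so potencies describe inhibitors; HT1080 fibrosarcoma cells; overnight exposure; toxic or luciferase-blocking compounds were not removed from the actives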
Hsc70 ATP site – Hsc70 inhibitors, probe displacement, primary screen, biochemical, fluorescence polarization (AID 568); Heat shock cognate 71 kDa protein (Homo sapiens); Hsc70 fluorescence polarization, probe displacement; higher % means a stronger effect; strong numbers were not always called active; one-dose displacement, % at 20 µM; IC50 in µM for titrated hits; 83,000 tested, under 10 active;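 active = displacement above 50% without optical interference and an IC50 on retest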;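 also: ATPase domain with a fluorescein-tagged ATP probe; 0% = vehicle and 100% = excess ADP; read after one hour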
WNV NS2B-NS3 inh – inhibitors of WNV NS2B-NS3 protease, primary screen, biochemical, fluorogenic substrate; Genome polyprotein (West Nile virus), P06935; fluorogenic substrate Ex360/Em465; hits give low values; AID 577, 2007; z-score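 (tested at a level between 10 and 100 µM)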; 65,000 tested, 0.18% active;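 active = z-score at -3 or under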;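 also: score is relative to mean and spread of the compound wells of a plate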
Target sequence (P06935 1371-1501 limits assumed): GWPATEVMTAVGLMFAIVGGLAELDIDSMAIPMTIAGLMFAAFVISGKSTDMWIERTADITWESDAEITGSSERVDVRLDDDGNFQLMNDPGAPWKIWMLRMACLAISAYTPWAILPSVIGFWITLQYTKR
Target sequence (P06935 1502-1679 limits assumed): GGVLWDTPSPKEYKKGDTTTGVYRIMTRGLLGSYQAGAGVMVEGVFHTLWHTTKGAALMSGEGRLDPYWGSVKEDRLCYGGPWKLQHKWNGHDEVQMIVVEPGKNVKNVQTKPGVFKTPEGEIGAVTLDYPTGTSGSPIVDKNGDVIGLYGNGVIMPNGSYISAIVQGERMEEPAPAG
An asterisk follows results filed as active; i = inactive; x = no result given.

SMILES	MT1-MMP reporter	Hsc70 ATP site	WNV NS2B-NS3 inh
O=C(NC1CCCCCC1)c1ccc2c(=O)n3c(nc2c1)CCCCC3	i	2.6%	x
Cc1cccn2c(=O)c(C=Nc3ccc(Cl)cc3)c(NCCO)nc12	i	-4.7%	2.07
Cc1cc(C)cc(NC(=O)CN2CCN(c3ncccn3)CC2)c1	i	-0.3%	x
CCCCCCC(=O)N(O)C1CC(=O)N(c2ccc(Br)cc2)C1=O (stereo unspecified)	i	-2.8%	-0.78
COCCCNC(=O)CCn1c(=O)c2ccccc2n(CC(=O)Nc2ccccc2C)c1=O	i	-6.6%	-1.12
Cc1[nH]c2ccccc2c1Cc1nnc(SCC(=O)NCc2ccco2)o1	i	-3.7%	-0.21
CCOc1ccc2nc(NC(=O)CS(=O)(=O)c3ccccc3)sc2c1	i	-4.8%	-0.94
CCc1nccn1S(=O)(=O)c1ccc(OC)c(OC)c1	i	0.7%	-0.35
COc1ccc(NC(=O)COC(=O)c2ccc(Br)o2)cc1OC	i	0.1%	-1
CCOC(=O)c1sc(NC(=O)C2CCCO2)c(C(=O)OCC)c1C (stereo unspecified)	i	4.7%	-0.5
CS(=O)(=O)N1CCN(Cc2ccccc2C(F)(F)F)CC1	i	-2.2%	-0.62
COc1ccc(-c2nnc(SCC(=O)NCc3cccs3)n2CC(C)C)cc1	i	2.4%	x
COc1ccccc1NC(=O)C1=C(C)Nc2nnnn2C1c1cccc(Br)c1 (stereo unspecified)	i	4.9%	0.00142
Cc1sc2nc(SCc3ccccc3)n(Cc3ccco3)c(=O)c2c1C	i	1.7%	x
Cc1ccc(NC(=O)CN2C(=O)C(C)Oc3ccccc32)nc1 (stereo unspecified)	i	-6.2%	-0.13
CCCOC(=O)c1ccc(-c2c(C)noc2-c2ccc(OC)cc2O)o1	i	1.7%	-0.31
CC1CCCC(C(=O)O)N1C(=O)CCSSCCC(=O)N1C(C)CCCC1C(=O)O (stereo unspecified)	i	-0.4%	x
CCOc1ccc(S(=O)(=O)N2Cc3ccccc3CC2C(=O)NCCCn2ccnc2)cc1 (stereo unspecified)	i	2.4%	-1.91
CC1(C)CC(=O)C=C(NCCN2CCN(C(=O)Nc3ccc(Cl)cc3)CC2)C1	i	-2.8%	-0.44
CCn1c(N)nc2c1c(=O)n(C)c(=O)n2C	i	1.9%	0.38
COc1cccc(-n2nc(C(=O)Nc3ccc4c(c3)OCO4)c3ccccc3c2=O)c1	i	-2.7%	0.61
Nc1nc(-c2cccnc2)nn1C(=O)CCc1ccccc1	i	-0.9%	-0.04
COc1ccc(OC)c(C(=O)CSc2nc3cccnc3n2C)c1	i	4.2%	1.75
CC(C)c1ccc(C(=O)CC2(O)C(=O)N(CN3CCOCC3)c3ccccc32)cc1 (stereo unspecified)	i	-3.1%	x
CN(C)CCCN(CCCNC(=O)/C=N/O)Cc1ccccc1	i	-0.1%	-0.05

Quoted at random: 7 records from the list, in no set order.
SMILES	MT1-MMP reporter	Hsc70 ATP site	WNV NS2B-NS3 inh
Cc1ccc(NC(=O)CN2C(=O)C(C)Oc3ccccc32)nc1 (stereo unspecified)	i	-6.2%	-0.13
CC1(C)CC(=O)C=C(NCCN2CCN(C(=O)Nc3ccc(Cl)cc3)CC2)C1	i	-2.8%	-0.44
Cc1cc(C)cc(NC(=O)CN2CCN(c3ncccn3)CC2)c1	i	-0.3%	x
CCOC(=O)c1sc(NC(=O)C2CCCO2)c(C(=O)OCC)c1C (stereo unspecified)	i	4.7%	-0.5
Nc1nc(-c2cccnc2)nn1C(=O)CCc1ccccc1	i	-0.9%	-0.04
COc1cccc(-n2nc(C(=O)Nc3ccc4c(c3)OCO4)c3ccccc3c2=O)c1	i	-2.7%	0.61
COc1ccc(NC(=O)COC(=O)c2ccc(Br)o2)cc1OC	i	0.1%	-1

Additional compounds.
SMILES	MT1-MMP reporter	Hsc70 ATP site	WNV NS2B-NS3 inh
COc1ccc(CCN2C(=O)CCC2(C)C(=O)NCc2cccnc2)cc1OC (stereo unspecified)	i	3.4%	-0.64
O=C(Cn1nnc(-c2ccccc2F)n1)Nc1cccc2ncccc12	i	-2.5%	-0.45
COC(=O)/C=C(\C)NC(=O)c1ccccc1Cl	i	3.9%	-1.08
CC(C)(C)n1nnnc1C(c1cccnc1)N1CCN(C(=O)c2ccco2)CC1 (stereo unspecified)	i	1.9%	0.87
COc1cc(C2Nc3ccccc3C(=O)N2c2ccccc2OC)ccc1O (stereo unspecified)	i	-4.2%	1.05
CC1(C)Cc2cccc(OCC(O)CNCc3ccccn3)c2O1 (stereo unspecified)	i	8.7%	1.45
N#CCSc1nc2ccc(N3CCOCC3)cc2c(=O)n1CCc1ccccc1	i	4.5%	x
CC(C)(C)C(=O)NC1(C(F)(F)F)C(=O)Nc2c1c(=O)[nH]c(=O)n2Cc1ccco1 (stereo unspecified)	i	-1.6%	0.03
Cc1cc(C)n(-c2nc3sc4c(c3c3nnc(SCC(N)=O)n23)CC(C)(C)OC4)n1	i	-4.9%	0.37
COc1cc(Cn2c(N)c(C#N)c3nc4ccccc4nc32)cc(OC)c1	i	-10.0%	0.26
COC(=O)c1cc(-c2c[nH]c3ccccc23)n[nH]1	i	-2.0%	0.48
O=C(O)CCc1ccc(-c2ccc(Br)cc2)n1CC(=O)O	i	0.7%	-0.89
CCOC(=O)N1CCN(C(=O)C(CC)n2nc(C)c3sc4ccccc4c3c2=O)CC1 (stereo unspecified)	i	0.1%	-0.00854
CCC(C(=O)N1CCN(c2ccccn2)CC1)n1nc(C)n2c(cc3occc32)c1=O (stereo unspecified)	i	-3.0%	-0.47
CCCNS(=O)(=O)c1ccc(CCC(=O)NCc2cccnc2)cc1	i	-0.1%	0.8
Cc1ccc2c(c1)nnn2C1CCN(CC(=O)N2c3ccccc3CC2C)CC1 (stereo unspecified)	i	-5.4%	-2.02
O=C1Nc2ccccc2C12OCCCCO2	i	-6.6%	1.44
CCOC(=O)CCNC(=O)CNC(=O)OCc1ccccc1	i	-8.8%	0.89
CCC1(C)OCC(Cn2c3ccccc3c3ccccc32)O1 (stereo unspecified)	i	0.7%	x
CCn1cnc2c1c(=O)n(Cc1csc(-c3ccccc3)n1)c(=O)n2Cc1ccccc1	i	-9.7%	0.24
CC1CCN(S(=O)(=O)c2ccc3[nH]cc(C(=O)NCCN4CCOCC4)c(=O)c3c2)CC1	i	3.6%	0.31
CCOc1cc(S(=O)(=O)NCc2ccc3c(c2)OCO3)ccc1F	i	-9.9%	-0.4
CC(=O)c1ccc(OCC(O)Cn2nnc3ccccc32)cc1 (stereo unspecified)	i	3.4%	-0.46
Cc1ccc(C(=O)NC=C(Cl)Cl)cc1	i	0.9%	0.9
COc1ccc(-c2noc(-c3ccc(Cl)cc3)n2)cc1	i	-1.0%	0.23
SMILES	MT1-MMP reporter	Hsc70 ATP site	WNV NS2B-NS3 inh
CCOC(=O)c1c(NC(=O)CSc2nc3cccnc3n2C)sc(C(C)=O)c1C	i	-40.5%	-0.69
Cc1ccc(C)c(N2CCN(C(=O)c3ccc(NS(=O)(=O)c4c(C)noc4C)cc3)CC2)c1	i	0.0%	0.48
CCOC(=O)C1CCN(c2nc(C)nc3c2oc2ccccc23)CC1	i	4.0%	-1.14
COc1ccc(S(=O)(=O)Nc2ccc(Cl)cn2)c(C)c1C	i	5.9%	-0.2
Fc1ccc(-c2nnc(-n3nnc4ccccc43)c3ccccc23)cc1	i	0.1%	x
Cc1cccc(C)c1OCC(=O)N1CC2(C)CC1CC(C)(C)C2 (stereo unspecified)	i	-2.8%	x
CCOC(=O)Cn1nnnc1C(CC)N(Cc1cccs1)Cc1cc2cc(C)ccc2[nH]c1=O (stereo unspecified)	i	-4.9%	1.72
COc1ccc(OC)c(N2CC(O)=C(c3nc4ccccc4s3)C2=N)c1	i	-4.2%	x
Cc1cccc(C)c1NC(=O)CCCSc1nnc(-c2ccco2)n1-c1ccccc1	i	1.7%	-2.12
C/C(N)=C(/C#N)C(=O)COC(=O)CCSc1ccccc1	i	8.0%	0.01
O=C(NC1CCCCC1)NC1CCN(CC(=O)N2CCOCC2)CC1	i	-0.7%	-0.88
NC(=O)c1ccsc1NC(=O)CN1C(=O)C2CC=CCC2C1=O (stereo unspecified)	i	0.0%	1.01
N#Cc1cnc(SCC(=O)Nc2ccccc2C(F)(F)F)nc1N	i	-0.2%	-0.04
CCC(=O)N(CCO)Cc1cc2ccc(C)c(C)c2[nH]c1=O	i	-1.1%	0.39
CSc1nsc(SCC(=O)Nc2cccc(C(C)=O)c2)n1	i	-5.9%	-0.48
c1coc(CNc2nc3nonc3nc2NCc2ccco2)c1	i	2.1%	1.06
CCOC(=O)c1cc(NC(=O)N2CCOCC2)c(C)nc1C	i	2.8%	-1.78
Cc1ccc(-c2nnc(SCC#N)n2N)cc1	i	1.4%	-0.07
CCOC(=O)c1cccc(S(=O)(=O)N(CCO)Cc2cc3cc(OC)c(OC)cc3[nH]c2=O)c1	i	7.0%	1.96
CCc1ccc2oc(-c3cccc(N)c3)nc2c1	3.93µM*	2.2%	x
CCOC(=O)/C=c1\s/c(=C(\C#N)C(=O)OCC)n(-c2ccccc2)c1=O	i	-65.8%	-0.11
O=C(NCC1CCC(C(=O)O)CC1)c1cccnc1 (stereo unspecified)	i	-2.1%	1.96
O=C1NCCCCC1NC1CC(=O)N(c2ccccc2)C1=O (stereo unspecified)	i	-5.9%	-1.86
O=C(Nc1ccc(N2CCN(Cc3ccccc3)CC2)cc1)c1cccnc1	i	3.8%	-0.4
CCN1C(=O)C2C(C1=O)N1C(c3ccccc3)C3C(=O)N(CC)C(=O)C3N1C2c1ccccc1 (stereo unspecified)	i	-3.5%	x
SMILES	MT1-MMP reporter	Hsc70 ATP site	WNV NS2B-NS3 inh
CN=C1CC(C)(C)CC(=O)/C1=C(/O)CCC(=O)NC	i	-1.4%	0.28
CCOc1ccccc1C1C(C(N)=O)=C(C)Nc2nc(-c3ccccc3Cl)nn21 (stereo unspecified)	i	-8.4%	-0.01
Cc1ccccc1OCc1nnc(SCC(=O)Nc2ccc3c(c2)oc2ccccc23)n1C	i	-2.0%	-0.08
CN1CCN(c2nc(C(N)=O)cc(-c3ccccc3)n2)CC1	i	-2.2%	-0.88
Cc1nc(SCC(=O)NCc2ccco2)c2c3c(sc2n1)CCCC3	i	3.5%	0.24
O=c1nc(-c2ccccc2)cc(-c2ccccc2)[nH]1	i	1.2%	-0.74
Cc1nn(-c2ccccc2)c(Cl)c1C(=O)OC(C)C(=O)Nc1ccc2c(c1)OCO2 (stereo unspecified)	i	4.4%	x
Cc1nn(Cc2ccc(C(=O)n3cccn3)o2)c(C)c1Br	i	5.0%	x
O=c1cc(O)sc2ccccc12	i	-2.0%	-0.56
Cc1ccc(CCN2CC(C(=O)NC3CCCC3)CC2=O)cc1 (stereo unspecified)	i	-1.2%	-1.12
CC(CCc1ccco1)NC(=O)Cn1nc(Cc2ccncc2)c2ccccc2c1=O (stereo unspecified)	i	5.1%	2.59
c1coc(CNc2ncnc3sc4c(c23)CCCCC4)c1	i	-8.3%	-0.1
Cc1ccc(CCNc2ccccc2)c[n+]1[O-]	i	2.0%	-0.75
Cc1nc2cc(O)ccc2n1C	i	-2.9%	0.58
CCc1nc(NCCCCCO)c2nnn(Cc3ccccc3F)c2n1	i	1.8%	x
COc1ccc(C2N(c3cc(Cl)ccc3OC)C(=O)C3CCCN32)cc1 (stereo unspecified)	i	2.6%	-0.21
C/C(Sc1nnc(Cc2ccccc2)o1)=C(/O)c1ccccc1	i	-4.9%	-0.52
Cn1c(SCc2nc3ccccc3[nH]2)nnc1-c1cccnc1	i	-5.6%	-0.9
CCC(=O)N1CCc2cc(Br)cc(S(=O)(=O)CC(=O)OC)c21	i	2.0%	-4.83*
CCOc1cc(S(=O)(=O)N2CCCC2)ccc1Cl	i	-7.0%	x
CC1(c2ccccc2)NC(=O)N(CC(=O)Nc2cccc(C#N)c2)C1=O (stereo unspecified)	i	-1.9%	0.33
Cc1cc(=O)oc(C)c1C(=O)NCC(C)NC(=O)c1c(C)cc(=O)oc1C (stereo unspecified)	i	7.9%	0.22
OCc1nc(CO)n(Cc2ccccc2)n1	i	8.5%	-0.22
CCOc1ccc(OCC)c(NC(=O)C2CCN(c3ncccn3)CC2)c1	i	1.9%	-0.09
CC(=O)NCCn1c(C)cc2ccccc21	i	5.6%	-0.88
O=C(CN1C(=O)c2cccc3cccc1c23)Nc1ccc2c(c1)OCO2	i	-7.4%	0.84
CCN(Cc1ccccc1)C(=O)C1CCN(Cc2ccc(OC)c(OC)c2OC)CC1	i	-3.7%	-0.45
Brc1ccccc1C1=Nn2c(nnc2-c2ccccc2)SC1	i	-9.7%	0.38
CCCCn1c(SCc2nc3ccccc3s2)nc2cc(S(N)(=O)=O)ccc21	i	2.6%	x
CCOC(=O)N1CCN(c2cc(=O)n(C3CCCCC3)c(=O)[nH]2)CC1	i	4.3%	1.09

Profiles as entered above.
Profile of CCOC(=O)c1sc(NC(=O)C2CCCO2)c(C(=O)OCC)c1C (stereo unspecified) : MT1-MMP reporter: i; Hsc70 ATP site: 4.7%; WNV NS2B-NS3 inh: -0.5
Profile of COc1ccc(-c2nnc(SCC(=O)NCc3cccs3)n2CC(C)C)cc1 : MT1-MMP reporter: i; Hsc70 ATP site: 2.4%; WNV NS2B-NS3 inh: x

This is a subset (hit frequency here may not be typical).
